Bioassay records deposited in PubChem BioAssay by several laboratories.
Calb FLC = affects C. albicans growth with fluconazole. C. albicans CaCi-2 (fluconazole-resistant clinical isolate) + fluconazole, Alamar Blue growth, 48 h. 300,000 compounds, 0.57% hits. growth inhibition, % (test concentration not listed);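 active = most replicates above 75%; inconclusive = exactly half above 75%; inactive = most below 75%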;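 also: all wells also contain fluconazole at 8 µg/ml as a sub-toxic cotreatment; 0% = median of DMSO wells and 100% = median of geldanamycin control wells; wells of about 8 µL received 7.5 nL stock; the first replicate is given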
Beta cell apopt = beta cell apoptosis inhibition; INS-1E cytokine-induced death, ATP luminescence, 48 h; percent of positive-control rescue, neutral wells zero; protection from apoptosis, % (no concentration beside the values); 300,000 compounds, 0.8% hits; AID 435005;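 active = all replicates at 75% or more, or half of them and the mean; inconclusive = half reach 75% but not the mean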;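 also: 0% = cytokine-treated negative control wells and 100% = positive control rescue; higher means more ATP so stronger rescue from cytokine killing; wells of about 40 µL received 100 nL stock; the first replicate is given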
ALR inh = human ALR oxidase inhibition via reduced H2O2. P55789. purified ALR, DTT oxidation, H2O2 HRP-luminol luminescence. inhibition, % (no concentration beside the values). 290,000 compounds, 3.8% hits. AID 485317;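 active = mean and each replicate at 75% or more; inconclusive = only one of the two met; inactive = neither met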;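 also: stock transfer was 7.5 nL into about 7.5 µL; 0% = neutral wells and 100% = wells with inactivated enzyme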
LANA-H2A inh = blocks KSHV LANA binding to histone H2A/H2B; Q9QR71; cell-free LANA-H2A/H2B peptide, fluorescence polarization; inhibition, % (no concentration beside the values); 320,000 compounds, 0.6% hits; AID 2629; in the data active = inhibition mostly above about 10%, no sharp cut-off; inactive = mostly below about 6.7%;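 also: stock transfer was 7.5 nL into about 10 µL; 0% = median of vehicle wells and 100% = median of positive control wells; one replicate is shown; the record names a cut of 25% in any replicate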
Target sequence (Q9QR71 whole entry, looked up): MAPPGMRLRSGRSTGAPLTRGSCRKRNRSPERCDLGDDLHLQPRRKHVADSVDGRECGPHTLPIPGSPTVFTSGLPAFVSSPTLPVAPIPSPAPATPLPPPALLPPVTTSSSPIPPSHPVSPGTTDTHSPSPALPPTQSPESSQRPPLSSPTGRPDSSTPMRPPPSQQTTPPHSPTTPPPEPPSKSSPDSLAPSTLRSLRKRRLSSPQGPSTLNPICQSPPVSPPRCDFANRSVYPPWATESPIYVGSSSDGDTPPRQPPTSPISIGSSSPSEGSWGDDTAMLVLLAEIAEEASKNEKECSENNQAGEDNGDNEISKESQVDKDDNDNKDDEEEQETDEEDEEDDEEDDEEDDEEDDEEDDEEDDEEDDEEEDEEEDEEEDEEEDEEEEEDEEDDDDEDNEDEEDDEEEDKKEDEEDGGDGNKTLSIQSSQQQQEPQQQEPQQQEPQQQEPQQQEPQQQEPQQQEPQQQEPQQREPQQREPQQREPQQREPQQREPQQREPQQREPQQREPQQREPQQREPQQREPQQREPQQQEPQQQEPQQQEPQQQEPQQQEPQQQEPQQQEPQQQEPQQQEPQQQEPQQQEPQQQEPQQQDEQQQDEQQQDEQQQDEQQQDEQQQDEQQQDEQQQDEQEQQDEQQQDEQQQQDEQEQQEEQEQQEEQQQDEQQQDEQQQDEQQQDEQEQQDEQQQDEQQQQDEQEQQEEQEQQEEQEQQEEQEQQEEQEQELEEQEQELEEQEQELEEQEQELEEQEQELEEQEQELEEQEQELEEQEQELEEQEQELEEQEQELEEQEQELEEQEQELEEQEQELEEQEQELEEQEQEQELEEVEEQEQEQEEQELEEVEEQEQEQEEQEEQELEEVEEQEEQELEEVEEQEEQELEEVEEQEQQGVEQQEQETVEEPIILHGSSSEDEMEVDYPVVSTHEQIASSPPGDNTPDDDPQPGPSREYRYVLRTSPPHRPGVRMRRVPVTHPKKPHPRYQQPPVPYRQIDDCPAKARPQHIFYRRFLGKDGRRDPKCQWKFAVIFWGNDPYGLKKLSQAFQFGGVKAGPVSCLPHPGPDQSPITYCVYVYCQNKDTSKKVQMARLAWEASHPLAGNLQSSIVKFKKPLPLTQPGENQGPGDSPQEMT
A1 inh = inhibitors of the anti-apoptotic protein A1, read as caspase activation. MEF A1-2A-BIM cells, Caspase-Glo 3/7 luminescence, 3 h; percent of clofoctol response, vehicle zero. caspase activation, % (concentration not given with the values). 330,000 compounds, 0.066% hits. AID 2462;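 active = over half of replicate activation scores above 10%, or exactly half above 10 with the replicate mean above 10; inconclusive = replicate mean below 10 yet half the replicates above 10; inactive = over half of replicates below 10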;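 also: wells of about 30 µL received 50 nL stock; many hits fall short of the cut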
Ecoli rRNA inh = inhibits bacterial ribosomal RNA function over humanized ribosomes; GFP signal change (wild-type ribosome), % (no concentration beside the values); E. coli WT GFP vs humanized-ribosome RFP mutants, fluorescence, 24 h; hits give low values; DMSO median 0, no signal -100; 350,000 compounds, 1.6% hits;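 active = significant combined selectivity score with lowered wild-type GFP, culture density cut under 30%, mutant RFP and density less affected; inactive = any of these conditions unmet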; also: one replicate is shown; some compounds called inactive have numbers as strong as hits
T cruzi inh = T. cruzi replication inhibition; 300,000 compounds, 1.4% hits; inhibition, % (concentration not given with the values); T. cruzi beta-gal in NIH3T3, luminescence, 90 h;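 active = mean inhibition across valid replicates above about 55%, limit read from the data; inconclusive = mean below that limit but half or more replicates reach it; inactive = mean below it, under half of replicates reach it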;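 also: signal also drops with host cell toxicity which is not excluded here; 0% = plate median of DMSO wells and 100% = zero luminescence signal; higher percent means less beta-gal luminescence so fewer parasites; stock transfer was 50 nL into about 50 µL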
Beta2AR agonist = human beta-2 adrenergic receptor agonism by FAP; P07550; Am2.2-beta2AR cells, FAP receptor internalization, flow cytometry; reference of the scale not given here; response, % (concentration not given with the values); 340,000 compounds, 0.43% hits; AID 504454;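 active = response above a set limit, near 3 SD of response in nonfluorescent compounds, cut at about 42% in these data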;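 also: stock transfer was 100 nL into about 11 µL; a reference agonist was the positive control; negative values mostly stem from fluorescent compounds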
Ecoli rRNA inh OD600 = recorded beside Ecoli rRNA inh, whose call it bears; OD600 change, %; measured here: OD600 growth;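 optical density of the mix in the first replicate; 0 = DMSO median and -100 = no signal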
Ecoli rRNA inh RFP = also measured in Ecoli rRNA inh; calls as there; RFP signal change, %; measured here: RFP humanized mutant strains;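 first replicate; 0 = DMSO median and -100 = no signal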
The depositor's hits bear a star; ? = inconclusive; · = no result given. Not all compounds are listed. The share of hits here may be higher or lower than overall.

1	COc1ccc(C(=O)N=c2sc3c(C)ccc(OC)c3n2C)cc1OC
2	CCC(C)n1c(=O)c(C(=O)Nc2ccccc2S(N)(=O)=O)c(O)c2ccccc21 (stereo not drawn)
3	O=C(Nc1ccn(Cc2ccc(Cl)cc2)n1)c1ccccc1
4	CCCCc1cc2c(c(NC(=O)CC)n1)c(=O)oc1ccccc12
5	Cc1cc(C(=O)CSc2nc3ccccc3[nH]2)c(C)n1CC1CCCO1 (stereo not drawn)
6	OCC1OC(Oc2c[nH]c3ccccc23)C(O)C(O)C1O (stereo not drawn)
7	O=S(=O)(NCCC1=CCCCC1)c1cccc(Br)c1
8	CC(CN1CCOCC1)OC(=O)c1cccc(Br)c1 (stereo not drawn)

Assay by compound,1,2,3,4,5,6,7,8
Calb FLC,-3,0,-13,19,25,·,-27,-5
Beta cell apopt,6,-3,-13,·,54,-2,·,·
ALR inh,-4,-3,·,·,-7,·,0,0
LANA-H2A inh,0.3,0.0,1.1,·,0.0,-6.3,3.0,0.7
A1 inh,-7.2,0.9,-1.4,·,-1.9,0.5,1.2,-0.1
Ecoli rRNA inh,17,·,-24*,-2,·,-10,-50,·
Ecoli rRNA inh OD600,13,·,-1.9*,2,·,-3,-72,·
Ecoli rRNA inh RFP,-1.0,·,-2.0*,0.8,·,-2.0,-12,·
T cruzi inh,47,-4,3,-3,-47,-5,-6,-11
Beta2AR agonist,47*,-47,-8,-22,4,1,-3,1

9	COC(=O)C1=CN(CC2CCCO2)C=C(C(=O)OC)C1c1cc(OC)c(OC)c(OC)c1 (stereo not drawn)
10	CCCOc1ccc(-c2c(=O)n(OCc3ccc([N+](=O)[O-])cc3)c3ccccc3[n+]2[O-])cc1
11	Cc1cccc(CC2CC(=O)N(c3ccccc3)C2=O)c1 (stereo not drawn)
12	O=C(CCNc1cccc(F)c1)c1cc2ccccc2o1
13	CC(C)(C)c1nnc(NC(=O)c2cccs2)s1
14	O=Cc1cccn1-c1sc2c(c1C(=O)O)CCCC2
15	COc1ccc(C(=O)NNC(=O)CSc2nnnn2C)cc1
16	COc1cccc(-c2cc(=O)c3cc(NC(=O)c4ccccc4)ccc3[nH]2)c1

Assay by compound,9,10,11,12,13,14,15,16
Calb FLC,-3,3,6,-10,25,-2,-4,7
Beta cell apopt,-7,-7,-2,-8,4,-9,0,17
ALR inh,-4,-1,4,20,5,-9,-23,-3
LANA-H2A inh,-1.2,0.5,-2.3,3.2,2.3,3.4,1.6,-5.1
A1 inh,0.2,-1.0,-0.5,0.6,-5.9,-0.7,0.2,0.4
Ecoli rRNA inh,·,8,·,12,0,-5,12,7
Ecoli rRNA inh OD600,·,10,·,14,-7,-6,8,9
Ecoli rRNA inh RFP,·,-2.7,·,6.7,-3.1,-1.4,-3.5,0.0
T cruzi inh,6,19,-1,22,4,-11,-13,-26
Beta2AR agonist,-1,14,-1,-2,-5,-12,9,12

Full records, quoted from the list. Values in the order: Calb FLC	Beta cell apopt	ALR inh	LANA-H2A inh	A1 inh	Ecoli rRNA inh	Ecoli rRNA inh OD600	Ecoli rRNA inh RFP	T cruzi inh	Beta2AR agonist
COC(=O)C1=CN(CC2CCCO2)C=C(C(=O)OC)C1c1cc(OC)c(OC)c(OC)c1 (stereo not drawn) is listed with -3	-7	-4	-1.2	0.2	·	·	·	6	-1
Cc1cc(C(=O)CSc2nc3ccccc3[nH]2)c(C)n1CC1CCCO1 (stereo not drawn) is listed with 25	54	-7	0.0	-1.9	·	·	·	-47	4

(continued)
17	Cc1cccc(C)c1NC(=O)CN(C)C(=O)c1ccccc1SCC(=O)N1CCCC1
18	CN(C)S(=O)(=O)N1CCC(c2ccc(F)cc2)C(COc2ccc3c(c2)OCO3)C1 (stereo not drawn)
19	O=C(CSC(=S)N1CCCC1)N1CCN(S(=O)(=O)c2cccc(F)c2)CC1
20	CCCCN(C(=O)Cn1nnc2ccccc21)C(C(=O)NCCOC)c1ccccc1 (stereo not drawn)
21	Cc1cc(Cl)ccc1N=c1ssnc1Cl
22	Cc1ccc(C(=O)N/C(=C\c2ccc(C(C)C)cc2)C(=O)NCCCN2CCOCC2)cc1
23	CC(=O)Nc1ccc(S(=O)(=O)Nc2ccn(Cc3ccccc3Cl)n2)cc1
24	COc1ccc(OC)c(S(=O)(=O)Nc2ccccc2C)c1

Assay by compound,17,18,19,20,21,22,23,24
Calb FLC,-5,·,6,4,?,1,-3,6
Beta cell apopt,-1,2,-6,-2,25,6,·,0
ALR inh,-5,-15,-6,-1,11,10,·,-6
LANA-H2A inh,0.5,3.8,-9.8,0.2,6.1,2.7,·,-2.0
A1 inh,-0.5,-0.8,0.7,-0.3,0.7,0.3,·,-0.3
Ecoli rRNA inh,5,·,5,·,·,·,7,3
Ecoli rRNA inh OD600,12,·,-1,·,·,·,5,-4
Ecoli rRNA inh RFP,0.8,·,0.4,·,·,·,0.1,-3.8
T cruzi inh,-5,·,-5,-1,-15,-1,7,-1
Beta2AR agonist,4,-1,-1,17,-1,8,4,14

25	O=C(C1CCC1)N1CCN(S(=O)(=O)c2cccc(F)c2)CC1
26	CCCCCCCNC(=O)C1(CC2CC(c3ccc(Cl)cc3)=NO2)CCN(C(=O)Cc2ccc(F)cc2)CC1 (stereo not drawn)
27	CCOCCn1c(=NC(=O)c2ccc(S(=O)(=O)N3CCOCC3)cc2)sc2cc(S(N)(=O)=O)ccc21
28	CN(Cc1nc(Cc2ccccc2F)no1)Cc1cccc2ncccc12
29	COc1ccc(C(=O)NC(=S)NNC(=O)c2cccc(C)c2)cc1
30	CCN1CCN(c2c(Cl)cccc2NC(=O)c2cc3ccccc3o2)CC1
31	Cc1ccc(S(=O)(=O)NCCC(=O)Oc2ccc3ccc(=O)oc3c2)cc1
32	CN(C)c1cccc(C(=O)OC(C(=O)Nc2ccc([N+](=O)[O-])cc2Br)c2ccccc2)c1 (stereo not drawn)

Assay by compound,25,26,27,28,29,30,31,32
Calb FLC,1,14,2,-2,-2,7,-3,-4
Beta cell apopt,2,2,16,8,-4,3,1,3
ALR inh,-5,-12,-1,·,-2,·,18,-5
LANA-H2A inh,-1.2,-5.3,-1.5,-1.3,-7.4,4.4,6.7,-0.6
A1 inh,-1.3,0.5,-0.8,0.6,0.4,0.8,0.0,-1.7
Ecoli rRNA inh,8,12,-16,-5,-46,-8,12,11
Ecoli rRNA inh OD600,12,6,-12,-1,-71,-34,8,4
Ecoli rRNA inh RFP,-2.0,1.9,-4.8,8.9,-12,1.6,1.3,2.1
T cruzi inh,-9,33,-8,-20,-1,28,-8,12
Beta2AR agonist,-5,-7,11,-1,-2,-2,-2,-7

An excerpt from above in order of the Ecoli rRNA inh value, lowest first:
| item | structure | Ecoli rRNA inh |
| --- | --- | --- |
| 27 | CCOCCn1c(=NC(=O)c2ccc(S(=O)(=O)N3CCOCC3)cc2)sc2cc(S(N)(=O)=O)ccc21 | -16 |
| 28 | CN(Cc1nc(Cc2ccccc2F)no1)Cc1cccc2ncccc12 | -5 |
| 26 | CCCCCCCNC(=O)C1(CC2CC(c3ccc(Cl)cc3)=NO2)CCN(C(=O)Cc2ccc(F)cc2)CC1 (stereo not drawn) | 12 |

(further entries)
33	Cc1cccc(NC(=O)CN(C)S(=O)(=O)c2ccccc2)n1
34	CCn1c(=N)n(CC(=O)c2cccc([N+](=O)[O-])c2)c2ccccc21
35	CCc1ccc(NC(=O)CSc2nccn(-c3ccc4c(c3)OCCO4)c2=O)cc1
36	c1ccc(-c2noc(CSc3nnnn3C3CCCCC3)n2)cc1
37	COc1cc2[nH]c(=O)c(C(=O)NCc3ccccc3Cl)c(O)c2cc1OC
38	CCc1nc(N2CCN(C(=O)c3ccco3)CC2)c2oc3ccccc3c2n1
39	COc1ccc(S(=O)(=O)N2CCCCC2C(=O)O)cc1OC (stereo not drawn)
40	CC1CC(C)CN(S(=O)(=O)c2ccc(C(=O)N3CCN(c4ccccc4)CC3)cc2)C1 (stereo not drawn)

Assay by compound,33,34,35,36,37,38,39,40
Calb FLC,-12,46,53,-11,0,-7,15,-2
Beta cell apopt,-1,0,·,-12,·,7,·,3
ALR inh,-6,-7,·,·,1,-10,-16,-11
LANA-H2A inh,2.5,0.1,·,2.1,3.7,8.0,0.7,-0.2
A1 inh,-0.9,0.8,·,-0.9,0.0,-0.8,0.7,-0.1
Ecoli rRNA inh,·,-2,-9,·,1,·,·,-12
Ecoli rRNA inh OD600,·,-2,-9,·,12,·,·,-8
Ecoli rRNA inh RFP,·,1.7,4.9,·,-3.9,·,·,3.9
T cruzi inh,-18,1,41,1,-12,-6,1,16
Beta2AR agonist,6,-31,14,-27,0,-7,7,-1

41	O=C(CSc1nccc(=O)[nH]1)Nc1ccc2c(c1)OCCO2
42	O=C(NO)c1cc(OCC(F)(F)F)ccc1OCC(F)(F)F
43	Cn1c(SCC(=O)NC(=O)c2cccc([N+](=O)[O-])c2)nnc1-c1ccc(F)cc1
44	COc1ccc(Cl)cc1C(=O)NNC(=O)c1ccncc1
45	CCn1nc(C)c(CNC(=O)C2CCC(=O)N(CCc3ccc(Cl)cc3)C2)c1C (stereo not drawn)
46	CCOC(=O)c1ccc(NC(=O)Cn2ccc([N+](=O)[O-])n2)cc1

Assay by compound,41,42,43,44,45,46
Calb FLC,-4,-21,-2,1,0,-5
Beta cell apopt,-4,0,-1,-5,-5,-6
ALR inh,98*,·,-11,0,1,-4
LANA-H2A inh,-1.8,1.5,-5.0,3.6,-4.6,1.6
A1 inh,-0.2,0.0,0.1,1.0,-1.0,-0.6
Ecoli rRNA inh,22,·,3,17,7,11
Ecoli rRNA inh OD600,14,·,0,14,17,6
Ecoli rRNA inh RFP,-2.7,·,-4.1,0.4,7.0,0.9
T cruzi inh,1,-10,-14,-8,3,0
Beta2AR agonist,5,1,-4,-5,-2,-18
